PKD1 inh: blocks activity of human protein kinase D1; Q15139; PKD1 kinase fluorescence polarization assay; inhibition, %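 (about 10 µM by stock and volumes)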; 0.056% of 200,000 active; AID 797;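 active = inhibition of 50% or more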;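 also: controls were vehicle for no effect and a reference inhibitor for full effect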
INS promoter inh: TRM-6 insulin promoter activity inhibition. TRM-6 cells (human fetal islet line), insulin promoter-eGFP reporter, imaging; reporter expression induced with tamoxifen. inhibition, % at 2 µM. 0.9% of 130,000 active;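 active = inhibition above the mean plus 3 SD, with well images judged a real hit on visual review, cut at about 60% in these data, passing the limit was not always enough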
GALR2 ag: GALR2 (human) receptor agonism | GALR2-expressing cells, agonist activation read-out | activation, %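 (tested at 5 µM)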 | 0.48% of 140,000 active | AID 803;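 active = above mean plus 3 SD of all compounds, about 5% in these data, not always enough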;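 also: 0% = vehicle buffer wells and 100% = reference agonist at full effect; tested in CHO reporter cells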
Target sequence (O43603 whole entry, looked up): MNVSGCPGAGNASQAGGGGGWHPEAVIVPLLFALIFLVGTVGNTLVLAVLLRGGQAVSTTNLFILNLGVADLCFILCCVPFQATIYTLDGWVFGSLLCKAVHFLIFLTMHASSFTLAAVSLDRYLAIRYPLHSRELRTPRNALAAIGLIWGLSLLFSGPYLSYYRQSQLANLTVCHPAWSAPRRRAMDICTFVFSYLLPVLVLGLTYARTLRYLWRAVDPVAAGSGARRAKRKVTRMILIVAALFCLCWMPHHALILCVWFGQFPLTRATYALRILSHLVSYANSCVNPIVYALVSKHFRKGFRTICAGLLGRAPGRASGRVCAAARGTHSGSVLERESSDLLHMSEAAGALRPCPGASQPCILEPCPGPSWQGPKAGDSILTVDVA
HSV replic up: increases HSV replication in cells. HSV replication augmentation in cells, fold increase. maximum fold increase. 0.005% of 220,000 active. AID 1956;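 active = peak rise of 1.5-fold or more in the series; tested in PC3 cells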;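 also: first round at 10 µM; read as green reporter fluorescence; hits show the peak of a series up to 25 µM; 1 = signal of infected wells without compound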
RGS16-Gao HTS: RGS16-Galphao interaction regulator (human); AID 1441; O15492+P09471; 0.38% of 220,000 active; bead-based flow cytometry RGS16-Galphao binding, fluorescence; actives lie on both sides; binding response (% of control), % at 10 µM;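 active = below 25% or above 175%, edge rows of some plates excepted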;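 also: Galphao activated by GDP with aluminum fluoride before binding; 100% = wells without compound and 0% = beads without RGS; some results beyond the cut were filed as inactive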
Target sequence (O15492 whole entry, looked up): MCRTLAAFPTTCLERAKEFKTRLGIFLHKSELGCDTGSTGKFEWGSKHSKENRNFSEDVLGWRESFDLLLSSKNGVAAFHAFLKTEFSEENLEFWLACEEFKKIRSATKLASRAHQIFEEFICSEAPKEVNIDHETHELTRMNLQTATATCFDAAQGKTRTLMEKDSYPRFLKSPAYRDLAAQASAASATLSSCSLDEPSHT
Target sequence (P09471 whole entry, looked up): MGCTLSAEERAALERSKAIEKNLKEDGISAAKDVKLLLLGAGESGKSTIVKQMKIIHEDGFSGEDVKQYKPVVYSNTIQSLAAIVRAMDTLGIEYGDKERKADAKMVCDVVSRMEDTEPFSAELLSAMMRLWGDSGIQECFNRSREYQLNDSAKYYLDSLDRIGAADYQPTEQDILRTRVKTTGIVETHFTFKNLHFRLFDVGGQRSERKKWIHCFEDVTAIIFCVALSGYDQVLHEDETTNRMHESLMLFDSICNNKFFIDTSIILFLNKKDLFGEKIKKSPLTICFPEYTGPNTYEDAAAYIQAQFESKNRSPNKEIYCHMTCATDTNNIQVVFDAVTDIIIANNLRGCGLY
INS promoter inh cell count: recorded beside INS promoter inh, whose call it bears; normalized cell count, %; measured here: cell count, toxicity; reference of the scale not given here;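 cells exposed to compound for 48 h; stained nuclei by imaging scaled within each plate; lower means fewer cells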
HSV replic up primary fold: second read-out of HSV replic up, no call of its own (marks repeat the call); fold increase; compound at 10 µM; measured here: primary screen fold increase 10 uM; tested in PC3 cells;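 GFP signal in the first replicate; 1 = infected wells without compound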
An asterisk follows results filed as active; i = inactive; . = not tested or not shown.

Start of the data: the first 5 entries (preview)
SMILES	PKD1 inh	INS promoter inh	INS promoter inh cell count	GALR2 ag	HSV replic up	HSV replic up primary fold	RGS16-Gao HTS
COCCCNC(=O)c1c[nH]c2ccc(S(=O)(=O)N3CCC4(CC3)OCCO4)cc2c1=O	-4.6	.	.	.	i	1.08	100.6
O=C(NNC(=O)C1CCN(Cc2ccc(F)cc2Cl)CC1)Nc1ccc([N+](=O)[O-])cc1	-2.3	.	.	.	i	0.91	100.9
O=C(NCC1CCCCC1)C1CCN(C(=O)NC2CCCCC2)CC1	-2.0	.	.	-0.9	i	0.76	103.4
CCSC1=N/C(=C\c2ccc(C)s2)C(=O)S1	-0.2	-13.5	70.2	-1.1	i	1.08	97.7
N=c1n(CCN2CCCCC2)c2ccccc2n1CC(O)c1ccco1 (stereo unspecified)	.	.	.	.	i	1.05	89.0

All compounds of this part, from the first entry:
SMILES	PKD1 inh	INS promoter inh	INS promoter inh cell count	GALR2 ag	HSV replic up	HSV replic up primary fold	RGS16-Gao HTS
COCCCNC(=O)c1c[nH]c2ccc(S(=O)(=O)N3CCC4(CC3)OCCO4)cc2c1=O	-4.6	.	.	.	i	1.08	100.6
O=C(NNC(=O)C1CCN(Cc2ccc(F)cc2Cl)CC1)Nc1ccc([N+](=O)[O-])cc1	-2.3	.	.	.	i	0.91	100.9
O=C(NCC1CCCCC1)C1CCN(C(=O)NC2CCCCC2)CC1	-2.0	.	.	-0.9	i	0.76	103.4
CCSC1=N/C(=C\c2ccc(C)s2)C(=O)S1	-0.2	-13.5	70.2	-1.1	i	1.08	97.7
N=c1n(CCN2CCCCC2)c2ccccc2n1CC(O)c1ccco1 (stereo unspecified)	.	.	.	.	i	1.05	89.0
N#CCC(=O)Nc1ccc(C(=O)OCC(=O)Nc2cccc(C(F)(F)F)c2)cc1	-5.6	.	.	.	i	1.08	96.2
CC1Cc2ccccc2N1C(=O)CSc1nnc(C2CC2)n1C (stereo unspecified)	5.3	-36.4	119.3	.	i	1.09	102.5
Cc1ccc(S(=O)(=O)N2CCN(c3ccc([N+](=O)[O-])c(Sc4nncn4C)c3)CC2)cc1	-0.7	-81.8	111.7	-0.3	i	1.03	95.9
COc1ccc(OC)c(S(=O)(=O)NC(C)(C)C)c1	-1.0	-7.1	127.8	-2.1	i	0.85	103.8
Cn1cnnc1SCc1ccc(C(=O)n2ncc(C#N)c2N)cc1	-5.9	9.1	88.4	-0.7	i	1.09	103.1
CC1CCC(NC(=O)C2CCN(S(=O)(=O)c3ccc4nc5c(c(C(=O)O)c4c3)CC(C)CC5)CC2)CC1 (stereo unspecified)	3.1	16.3	100.6	.	i	1.07	93.7
O=C(CN1C(=O)S/C(=C/C=C/c2ccccc2)C1=O)Nc1ccc(C(=O)O)cc1	-6.5	i	29.7	.	i	0.94	98.9
CC1Oc2ccccc2N(CC(=O)N2CCc3ccccc32)C1=O (stereo unspecified)	-4.3	38.1	28.3	-1.0	i	0.96	102.8
COc1cccc(N=c2oc3c(C)ncc(CO)c3cc2C(=O)Nc2ccccc2OC)c1	3.0	.	.	-1.8	.	.	103.2
O=C(CN1CCOCC1)Nc1c(-c2ccccc2)c2cc(Br)ccc2[nH]c1=O	0.0	-42.9	151.2	0.3	i	0.66	103.0
O=C(O)c1cc(C(=O)C2CCCCC2)c[nH]1	111.9*	.	.	.	i	1.03	105.7
COc1ccc(C(=O)n2nc(C)cc2C)cc1Br	-10.6	10.7	100.0	-2.4	i	0.86	100.9
O=C(NCC(=O)N(c1ccccc1)C(C(=O)NC1CCCCC1)c1ccncc1)c1ccco1 (stereo unspecified)	-0.3	.	.	-2.5	i	0.967	96.7
COC(=O)c1ccc2c(c1)SC1=C(CCCC1=O)N2	1.9	21.2	95.6	-2.7	i	1.15	97.6
CC(C)(C)c1ccc(OCC(=O)NNC(=O)c2cccnc2)cc1	2.7	-5.0	133.6	.	i	0.95	107.1
COc1ccc(NS(=O)(=O)c2ccc(SC)cc2)cc1	-7.9	0.0	33.4	-1.3	i	0.72	96.9
CC(C)C(C)NC(=O)COC(=O)/C=C/c1ccc(S(=O)(=O)N2CCc3ccccc32)cc1 (stereo unspecified)	2.7	33.3	162.2	.	i	0.89	93.5
COc1cccc(-n2c(Cn3nc(C(F)(F)F)cc3C)n[nH]c2=S)c1	-10.4	4.8	142.7	-1.0	i	0.89	100.8
CNC(=O)C1(CC(C)C)C=CCN1C(C)=O (stereo unspecified)	6.4	23.8	135.1	-0.9	i	1.08	89.6
O=C(N/N=C/c1cccnc1)c1cccc(S(=O)(=O)Nc2cccc(Cl)c2)c1	-3.8	.	.	.	i	0.94	99.9
COc1ccc(-n2nc3cc(C)c(NC(=O)CC(C)C)cc3n2)cc1	-5.5	.	.	-0.6	i	0.96	68.5
COc1ccc2c(c1)c1nnc(SCC(=O)N3CCCCC3C)nc1n2C (stereo unspecified)	-5.9	.	.	-0.7	i	0.82	105.0
COc1ccc(-c2cc(-c3ccccc3)nc(=O)[nH]2)cc1	.	.	.	.	i	1.06	101.6
O=C(CCCOc1ccccc1)Nc1ccc2c(c1)OCCO2	6.2	17.1	125.0	-0.2	i	0.89	108.1
CCN(C(=O)COC(=O)/C=C/c1ccc(O)c(OC)c1)C1CCS(=O)(=O)C1 (stereo unspecified)	-5.7	9.8	106.9	-0.9	i	1.01	114.5
CCN(CCCNC(=O)CCn1c(=O)[nH]c2ccccc2c1=O)c1cccc(C)c1	-17.0	.	.	-2.1	i	1.11	100.0
CCOCC(=O)Nc1nc2ccc(OC)cc2s1	-6.8	-27.3	88.6	0.2	i	0.88	104.0
Cc1nc2ccccc2c(=O)n1NC(=O)/C=C/c1ccc(Br)cc1	-14.3	-11.4	100.5	0.5	i	0.84	95.9
Cc1ccc(NC2SC(=O)N(CC(=O)O)C2=O)cc1 (stereo unspecified)	4.8	3.1	178.1	-2.6	i	1.04	100.9
O=C(NCCN1CCCC1)c1ccc(Cn2c(=S)[nH]c3cc4c(cc3c2=O)OCO4)cc1	-2.8	9.1	81.7	-1.4	i	0.68	132.0
O=C(NCCN1CCN(c2ccccc2)CC1)c1cccc(Br)c1	2.7	6.2	94.7	-1.1	i	0.92	105.7
COc1ccc(C(CC(=O)c2ccc(O)cc2)S(=O)(=O)c2ccc(C)cc2)cc1 (stereo unspecified)	-2.3	6.7	83.3	-1.4	i	0.5	98.6
COc1ccc(Cc2n[nH]c(=S)n(N)c2=O)cc1	4.8	.	.	.	i	1.29	101.1
CCn1c(=O)cc(N2CCN(C(=O)c3ccco3)CC2)[nH]c1=O	.	.	.	.	i	0.94	97.3
Cc1onc(-c2ccccc2)c1C(=O)N/N=C/c1ccco1	.	.	.	.	i	1.01	99.4
Cc1cc(Nc2ccccc2)nn1C(=O)c1ccccc1	1.6	.	.	-0.6	i	0.89	115.7
O=C(COCC(=O)N1CCOCC1)N1CCOCC1	1.0	.	.	.	i	1.26	101.9
COc1ccc(C(=O)NN)cc1	.	.	.	.	i	0.96	119.9
Cc1cccc(Oc2nc3ccccn3c(=O)c2/C=C(\C#N)C(=O)NC2CCS(=O)(=O)C2)c1 (stereo unspecified)	7.4	33.3	58.1	3.7	i	0.77	61.8
COC(=O)C1CCN(C(=O)c2ccc(SC)cc2OC)CC1	-6.7	.	.	-2.0	i	0.92	115.4
COc1cc(/C=C2/C(=O)CNC2=O)ccc1O	-6.5	.	.	.	i	0.98	97.4
CCCCOc1ccc(Cc2c(Cl)nc(SC)nc2N2CCOCC2)cc1	4.7	-22.2	109.9	0.7	i	1.07	108.4
O=C1C2CCCN2C(=O)N1CCCN1CCN(c2cccc(Cl)c2)CC1 (stereo unspecified)	-5.2	11.1	126.5	-0.8	i	1.01	85.9
C1CCC(CNc2c3c(nc4nnnn24)CCCC3)CC1	-2.1	18.8	116.8	-0.4	i	0.97	103.6
CN(Cc1ccccc1)C(=O)COC(=O)c1ccc(Cl)c(N)c1	-0.8	.	.	-0.8	i	1.1	40.6
(listing goes on)
SMILES	PKD1 inh	INS promoter inh	INS promoter inh cell count	GALR2 ag	HSV replic up	HSV replic up primary fold	RGS16-Gao HTS
COc1ccccc1NC(=O)CN1CCC(n2nnc3cc(F)ccc32)CC1	-8.7	18.8	99.0	-1.7	i	0.9	100.4
Cc1cccc(N2CCN(C(=S)c3ccc(-c4ccccc4[N+](=O)[O-])o3)CC2)c1	-1.9	11.1	107.3	-0.8	i	0.72	107.6
O=C(O)c1ccc(COCC(F)(F)C(F)F)o1	-14.8	-136.4	94.0	0.8	i	0.95	96.8
Cc1csc(-c2cnn(-c3ccccc3)c2NC(=O)c2cccc(F)c2)n1	3.5	3.1	105.9	-2.1	i	1	51.6
CC(C)Cn1c(N)c(-c2nc(C(C)C)c(C(=O)c3ccccc3F)s2)c(=O)n(C)c1=O	-1.5	.	.	.	i	0.99	105.7
S=c1[nH]cc(-c2ccccc2)n1-c1ccccc1	-4.0	32.3	139.4	-1.2	i	1	90.5
COc1ccc(C(C(=O)NC2CCCC2)N(C(=O)c2ccoc2C)c2ccc(C)cc2)cc1 (stereo unspecified)	-5.8	25.0	115.9	-0.8	i	0.83	-266.4
Cc1ccc(S(=O)(=O)NNC(=O)CCCCC(=O)NNS(=O)(=O)c2ccc(C)cc2)cc1	-5.2	-61.1	93.4	.	i	0.97	99.4
O=C(CNC(=O)c1ccc2c(c1)OCO2)N/N=C/c1cccc([N+](=O)[O-])c1	0.3	.	.	.	i	1.05	101.4
O=C(CSc1nnc(-c2ccccc2F)n1C1CC1)Nc1cccnc1Cl	-6.4	-11.1	135.1	0.4	i	0.93	104.9
CCOC(=O)CNC(=O)C12CC3CC(C1)CC(c1ccc(C)cc1)(C3)C2	-5.4	35.7	43.3	.	i	1.05	106.1
O=C(/C=C/c1ccccc1)Nc1ccc(Cl)cn1	0.1	-10.5	78.6	.	i	0.84	102.1
N#CCSc1nnc(-c2ccc(F)cc2)n1N	-1.0	-44.4	116.7	.	i	0.99	99.8
N=c1ccn(Cc2ccc(Cl)c(Cl)c2)cc1	-1.4	-7.1	116.9	-2.5	i	0.8	96.9
CCOC(=O)C(NC(C)=O)C(=O)Nc1c(C)cccc1C (stereo unspecified)	-4.8	.	.	.	i	1.02	99.2
CCNC(=O)N1C(=O)C2(OCCO2)c2cc(Br)ccc21	-10.4	34.3	105.5	-1.1	i	0.89	93.7
Cc1cc(N2CCOCC2)ccc1/C=C1\NC(=O)N(CC(=O)Nc2ccc(F)cc2)C1=O	-7.7	.	.	.	i	0.93	107.4
COc1cc(/C=C(\C#N)C(=O)NCC2CCCO2)ccc1OC(C)C (stereo unspecified)	-11.4	70.3*	118.7*	-1.5	i	0.87	118.8
O=C(NNC(=S)NC(=O)c1ccco1)c1ccc(NC(=O)c2ccccc2)cc1	-0.3	-13.5	104.7	.	i	0.97	95.7
Cc1ccccc1NC(=O)c1ccc(NS(=O)(=O)c2cc(C(C)(C)C)cc(C)c2C)cc1	4.2	.	.	0.1	i	0.79	98.8

Some of the entries above in a different format:
SMILES,PKD1 inh,INS promoter inh,INS promoter inh cell count,GALR2 ag,HSV replic up,HSV replic up primary fold,RGS16-Gao HTS
O=C(/C=C/c1ccccc1)Nc1ccc(Cl)cn1,0.1,-10.5,78.6,.,i,0.84,102.1
CCOC(=O)C(NC(C)=O)C(=O)Nc1c(C)cccc1C (stereo unspecified),-4.8,.,.,.,i,1.02,99.2

More entries.
SMILES	PKD1 inh	INS promoter inh	INS promoter inh cell count	GALR2 ag	HSV replic up	HSV replic up primary fold	RGS16-Gao HTS
CC(C)CCNC(=O)C1(c2cccs2)CCOCC1	1.4	.	.	.	i	0.74	97.0
C=CCn1c(=NC(=O)C2CCCCC2)sc2cc(NC(C)=O)ccc21	-8.9	.	.	-3.2	i	0.87	101.4
CC1(OC(=O)CCc2ccccc2)C(=O)C=C2C=C(c3ccc(C#N)cc3)N(CCc3ccccn3)C=C2C1=O (stereo unspecified)	.	.	.	.	i	0.76	103.3
CN(C)N1C(N)=C(C#N)C(c2cccnc2)C2=C1CC(C)(C)CC2=O (stereo unspecified)	-2.2	48.3	112.1	-1.3	i	0.91	98.4
COCCNC(=O)Cn1nc(C)c([N+](=O)[O-])c1C	-7.2	.	.	.	i	1	100.2
O=C(O)CCCNS(=O)(=O)c1ccc(Br)s1	1.4	.	.	-0.5	i	0.88	103.6
CC(C)COP(=O)(OCC(C)C)C(Nc1ccccc1)c1ccccc1 (stereo unspecified)	.	.	.	.	i	0.97	97.5
COc1cc(CCN2C(=O)c3cccc4cccc(c34)C2=O)c(S(=O)(=O)N2CCC(C)CC2)cc1OC	-2.4	.	.	1.2	i	0.87	99.6
Cc1ccc2cc(C#N)c(SCC(=O)NNC(=O)Cc3ccccc3)nc2c1	10.8	.	.	-1.9	.	.	107.2
Cc1cc(C)n2c(nc3ccccc32)c1C(=O)NCc1ccccc1	-10.6	21.4	108.4	.	i	1.01	106.4
Cc1nc2ccccc2nc1N/N=C/c1ccc(O)cc1	.	.	.	.	i	1.05	96.5

Random draw from the library (roughly 1.1% active in at least one column).
